Bioassay records deposited in PubChem by National Center for Advancing Translational Sciences (NCATS).
StopGo reporter: FMDV 2A StopGo reporter, luciferase signal | human cells with a luciferase reporter of 2A StopGo recoding; control for the full effect not named in the record | Potency, µM (highest dose often 57.9 µM), for inactives: at the top dose signal change, negative = less light | actives 1.2% (n = 410,000) | AID 1159524; active = well fitted falling curve with a large enough effect; inconclusive = small, poorly fitted or top-dose-only effect; inactive = no such curve, though single readings can be large or run the other way; tested in HEK293T cells; further: nearly all actives have a fitted effect of over 45% in size; luciferase light after 4 h
Lassa entry inh: Lassa virus entry inhibition | Lassa virus pseudotype entry inhibition, cell reporter; control for the full effect not named in the record | Potency, µM (series often up to 37.9 µM), for the others: top-dose activity change, negative = inhibition, hits mostly inhibitors | actives 1.2% (n = 300,000) | AID 540256; active means well fitted inhibition curve with a large enough effect; inconclusive means small, poorly fitted or top-dose-only effect, or effect the other way; inactive means flat fitted curve, though single readings scatter; tested in HEK293 cells; further: nearly all actives have a fitted effect of over 50% in size; luciferase read-out
Starred values were filed as active, the others as inactive; ? = inconclusive; [ ] = remark or other dose. On the % scale 0 is the no-effect control and ±100 the full control effect; potency means the concentration at half of the fitted maximal effect. Some of the compounds tested (hit frequency here may not be typical).

Every second line gives: StopGo reporter | Lassa entry inh
- COc1cc(NC(=O)N2CCC(CN3CCCC3)CC2)cc(OC)c1OC
 : -7% | ?
- CCOc1ccc(NC(=O)C2CCCN(c3nn4cc(-c5ccc(OC)cc5)nc4s3)C2)cc1 (stereo not drawn)
 : 0% | 7%[46.1 µM]
- O=C(Nc1cccc(Cl)c1)C1CCCN(c2nn3cc(-c4ccc(F)cc4)nc3s2)C1 (stereo not drawn)
 : -24% | -10%[46.1 µM]
- CC(C)CCNC(=O)Cn1cc(S(=O)(=O)Cc2ccc(F)cc2)c2ccccc21
 : -6% | -3%[46.1 µM]
- COc1ccc(-c2cn3nc(N4CCCC(C(=O)Nc5ccc(Cl)cc5C)C4)sc3n2)cc1 (stereo not drawn)
 : -16% | 18%[46.1 µM]
- COc1ccc(Cl)cc1C(=O)Nc1ccc2nc(Nc3cccc(Cl)c3)cc(C)c2c1
 : ? | 4%[46.1 µM]
- Cc1ccc(NC(=O)c2ccc(CN3CC(=O)N4CCCCC4C3=O)cc2)cc1C (stereo not drawn)
 : 7% | 2%[46.1 µM]
- CCc1nc(SC)ncc1C(=O)N1CCN(c2cc(C)ccc2C)CC1
 : -20% | -21%[46.1 µM]
- COc1ccc(-c2cn3nc(N4CCCC(C(=O)Nc5ccc(C)c(C)c5)C4)sc3n2)cc1 (stereo not drawn)
 : 11% | 0%[46.1 µM]
- CSc1ncc(C(=O)NCc2ccc(C)cc2)c(-c2ccccc2)n1
 : -19% | 0%[46.1 µM]
- O=C(Cn1c(-c2cccs2)cc2ccccc21)NCCCN1CCN(c2ccc(F)cc2)CC1
 : -18% | 7%[46.1 µM]
- CC(=O)N1CCC2(CC1)OC(=O)C(C)=C2C(=O)NCc1ccccc1Cl
 : 13% | 2%[46.1 µM]
- CCC1CN(C(=O)Nc2cc(Cl)ccc2C(=O)OC)c2ccccc2S1 (stereo not drawn)
 : -20% | ?
- CN(C)CCCN(C(=O)c1cccs1)c1nc2ccc(F)cc2s1
 : -12% | 22%[46.1 µM]
- Fc1ccc(N2CCN(c3ncnc4c3nc3n4CCCCC3)CC2)cc1
 : 25µM* | -9%[46.1 µM]
- COc1ccc(Nc2ncnc3c2nc2n3CCCC2)cc1Cl
 : 14% | 15%[46.1 µM]
- CCOC(=O)C1=C(CN(CC)Cc2ccccc2)NC(=O)NC1c1ccc(OC)cc1 (stereo not drawn)
 : -1% | ?
- CCc1cccc(NC(=O)CN2Cc3ccccc3C2=O)c1
 : -5% | 6%[46.1 µM]
- Cn1cc(S(=O)(=O)c2cccc(Cl)c2)c(=O)c2cc(F)c(N3CCN(c4ccccc4)CC3)cc21
 : -10% | 5%[46.1 µM]
- COc1cc(NC(=O)N2CCC(CN3CCc4ccccc4C3)CC2)cc(OC)c1
 : 0% | 12%[46.1 µM]
- CCOC(=O)c1ccc(NC(=O)C(CC)Sc2nc3ncccc3[nH]2)cc1 (stereo not drawn)
 : -17% | 18%[46.1 µM]
- O=C(NCCc1ccccc1)c1ccc(Cn2c(SCc3ccccc3)nc3cccnc32)cc1
 : 2% | 3%[46.1 µM]
- COc1ccc(OC)c(-c2noc(N3CCN(c4cccc(C(F)(F)F)c4)CC3)n2)c1
 : -2% | -10%[46.1 µM]
- CC(=O)N1c2ccc(S(=O)(=O)N3CCN(c4ccc(C)cc4C)CC3)cc2CC1C (stereo not drawn)
 : ? | -10%[46.1 µM]
- COc1ccc(C)cc1NC(=O)COCc1cc(-c2ccc(F)cc2)on1
 : -25% | ?
- O=C(Cn1cc(S(=O)(=O)Cc2cccc(Cl)c2)c2ccccc21)NCCc1ccccc1
 : 5% | -1%[46.1 µM]
- O=c1c(S(=O)(=O)c2ccccc2)cn(Cc2cccc(F)c2)c2cc(N3CCCC3)c(F)cc12
 : -5% | -2%[46.1 µM]
- O=C(CN1C(=O)COc2ccc(S(=O)(=O)NC3CCCC3)cc21)Nc1ccc(Cl)cc1F
 : 38%[activator] | -23%[46.1 µM]
- O=C(NCc1ccc(F)cc1)C1CCN(c2ncnc3c2nc2n3CCCCC2)CC1
 : -23% | -7%[46.1 µM]
- COc1ccc(OC)c(NC(=O)COCc2cc(-c3ccc(F)cc3)on2)c1
 : -24% | -3%[46.1 µM]

Another view of 5 compounds above:
canonical_smiles,StopGo reporter,Lassa entry inh
COc1ccc(-c2cn3nc(N4CCCC(C(=O)Nc5ccc(C)c(C)c5)C4)sc3n2)cc1 (stereo not drawn),11%,0%[46.1 µM]
CCC1CN(C(=O)Nc2cc(Cl)ccc2C(=O)OC)c2ccccc2S1 (stereo not drawn),-20%,?
O=C(CN1C(=O)COc2ccc(S(=O)(=O)NC3CCCC3)cc21)Nc1ccc(Cl)cc1F,38%[activator],-23%[46.1 µM]
Cc1ccc(NC(=O)c2ccc(CN3CC(=O)N4CCCCC4C3=O)cc2)cc1C (stereo not drawn),7%,2%[46.1 µM]
O=C(NCc1ccc(F)cc1)C1CCN(c2ncnc3c2nc2n3CCCCC2)CC1,-23%,-7%[46.1 µM]

Additional results.
Every second line gives: StopGo reporter | Lassa entry inh
- Cc1ccc(-c2cc(C(=O)N3CCN(S(=O)(=O)c4ccc(Br)s4)CC3)[nH]n2)cc1C
 : -13% | -8%[46.1 µM]
- N#Cc1ccc(NC(=O)COCc2cc(-c3ccc4c(c3)OCO4)on2)cc1
 : 3% | 14%[46.1 µM]
- COc1ccc(N2CCN(C(=O)c3cnc(SC)nc3C)CC2)cc1
 : -12% | 23%[46.1 µM]
- CC(=O)N1CCC(N(Cc2ccc(C)o2)C(=O)Nc2cccc(C(F)(F)F)c2)CC1
 : -26% | 20%[46.1 µM]
- CC(=O)c1cccc(NC(=O)C2CCN(c3ncnc4c3nc3n4CCCCC3)CC2)c1
 : ? | ?
- COc1ccc(C)cc1NC(=O)Cn1cc(S(=O)(=O)Cc2ccccc2Cl)c2ccccc21
 : 1% | -18%[46.1 µM]
- Cc1ccc(Cn2cc(S(=O)(=O)c3cccc(Cl)c3)c(=O)c3cc(F)c(N4CCOCC4)cc32)cc1
 : 11% | ?
- O=C(c1nc(-c2ccc(Cl)cc2)n2c1CCCCC2)N1CCN(c2ccc(F)cc2)CC1
 : -25% | -12%[46.1 µM]
- CCS(=O)(=O)N1CC(=O)N(c2ccc(Cl)cc2C)C(C)(C(=O)NC2CCCCC2)C1 (stereo not drawn)
 : -1% | -2%[46.1 µM]
- Cc1c(Cl)cccc1NC(=O)C(CCS(C)(=O)=O)N1Cc2ccccc2C1=O (stereo not drawn)
 : -2% | -2%[46.1 µM]
- CCCS(=O)(=O)N1CC(=O)N(c2cc(C)cc(C)c2)C(C)(C(=O)NC2CCCCCC2)C1 (stereo not drawn)
 : 12% | 29%[46.1 µM]
- CCN1CCN(CCCNC(=O)Cn2c(-c3cccs3)cc3ccccc32)CC1
 : -12% | -16%[46.1 µM]
- Cc1ccc(NC(=O)c2ccc(CN3CC(=O)N4CCCCC4C3=O)cc2)cc1 (stereo not drawn)
 : 11% | -6%[46.1 µM]
- CCN1CCc2c(sc(-n3cccc3)c2C(C)NC(=O)Nc2cc(Cl)c(OC)cc2OC)C1 (stereo not drawn)
 : 2% | 3%[46.1 µM]
- Cc1ccc(NC(=O)CN2C(=O)COc3ccc(S(=O)(=O)NC4CCCC4)cc32)cc1Cl
 : 21% | 0%[46.1 µM]
- COc1ccc(S(=O)(=O)c2cn(C)c3cc(N4CCCCCC4)c(F)cc3c2=O)cc1
 : -13% | -4%[46.1 µM]
- CCOc1ccc(OCC)c(NC(=O)c2cnc(SC)nc2-c2ccccc2)c1
 : ? | -16%[46.1 µM]
- COc1ccc(-c2nc(Cn3c(SCc4cccc(F)c4)nc4cccnc43)c(C)o2)cc1
 : -5% | -12%[46.1 µM]
- O=c1c(S(=O)(=O)c2ccccc2)cn(Cc2ccc(F)cc2)c2cc(N3CCCC3)c(F)cc12
 : 5% | -4%[46.1 µM]
- Cc1ccc(C)c(S(=O)(=O)c2cn(C)c3cc(N4CCCCC4C)c(F)cc3c2=O)c1 (stereo not drawn)
 : -6% | -4%[46.1 µM]
- CN(C(=O)Nc1cn(C)c(=O)c2ccccc12)c1ccccc1
 : 3% | 1%[46.1 µM]
- COC(=O)c1ccccc1NC(=O)C1=C(C)C(=O)OC12CCCCCC2
 : -3% | 1%[46.1 µM]
- CCc1ccc(S(=O)(=O)c2cn(C)c3cc(N4CCOCC4)c(F)cc3c2=O)cc1
 : -3% | -19%[46.1 µM]
- COC(=O)c1ccc(NC(=O)c2nc(-c3ccc(Cl)cc3)n3c2CCCCC3)cc1
 : -15% | -14%[46.1 µM]
- CCCn1c2ccccc2c2cnn(CC(=O)N(C)c3ccccc3CC)c(=O)c21
 : -12% | -30%[46.1 µM]
- COc1ccc(NC(=O)Cn2cnc3c(nc4n3CCCCC4)c2=O)c(OC)c1
 : -15% | 0%[46.1 µM]
- CCCSCCCNC(=O)C1CCCN(c2nn3cc(-c4ccc(OC)cc4)nc3s2)C1 (stereo not drawn)
 : -20% | 17%[46.1 µM]
- Cc1ccc(Cl)cc1N1CCN(S(=O)(=O)c2cc3[nH]c(=O)c(=O)[nH]c3cc2C)CC1
 : -13% | 4%[46.1 µM]
- O=C(COCc1cc(-c2ccc3c(c2)OCO3)on1)NCc1ccc(F)cc1
 : -16% | -1%[46.1 µM]
- CCCn1cc(S(=O)(=O)c2ccc(C)cc2)c(=O)c2cc(F)c(N3CCCC3)cc21
 : 17% | 13%[46.1 µM]

The results go on.
Every second line gives: StopGo reporter | Lassa entry inh
- COc1cc(OC)c(NC(=O)Cn2c(SCc3ccccc3F)nc3cccnc32)cc1Cl
 : 5% | 12%[46.1 µM]
- O=C(NCc1ccccc1F)c1ccc(CN2CC(=O)N3CCCCC3C2=O)cc1 (stereo not drawn)
 : -14% | 4%[46.1 µM]
- CCN(CC)CCN(C(=O)c1ccco1)c1nc2c(C)cccc2s1
 : 18% | -2%[46.1 µM]
- O=C(NCCc1ccccc1)c1ccc(Cn2c(SCc3ccccc3F)nc3cccnc32)cc1
 : 8% | -4%[46.1 µM]
- COCCCNC(=O)C1CCN(c2nn3cc(-c4ccc(F)cc4)nc3s2)CC1
 : 21% | 21%[46.1 µM]
- CCCn1c2ccccc2c2cnn(CC(=O)Nc3cc(OC)c(OC)c(OC)c3)c(=O)c21
 : ? | 19%[46.1 µM]
- CCC1CN(C(=O)Nc2ccc(Br)cc2F)c2ccccc2S1 (stereo not drawn)
 : -3% | 8%[46.1 µM]
- CC1=C(C(=O)Nc2ccc(C)cc2Cl)C2(CCCCCC2)OC1=O
 : -3% | ?
- CSc1ncc(C(=O)NCc2cccc(F)c2)c(-c2ccccc2)n1
 : 2% | ?
- CSc1ncc(C(=O)Nc2cccc(Cl)c2C)c(-c2ccccc2)n1
 : -19% | 7%[46.1 µM]
- O=C(NCc1cccs1)c1ccc(CSc2nc3cccnc3n2Cc2ccccc2F)cc1
 : -21% | -27%[46.1 µM]
- CCOc1ccc(CNS(=O)(=O)c2ccc3c(c2)CC(C)N3C(C)=O)cc1OC (stereo not drawn)
 : ? | -5%[46.1 µM]
- CC(C)(C)c1ccc(S(=O)(=O)N2CCN(C(=O)c3cc(-c4ccc(Br)cc4)n[nH]3)CC2)cc1
 : -5% | -3%[46.1 µM]
- CCOc1ccccc1NC(=O)NC(CC)c1c(-n2cccc2)sc2c1CCN(C)C2 (stereo not drawn)
 : -11% | -25%[46.1 µM]
- CCc1cccc(C)c1NS(=O)(=O)c1cc2[nH]c(=O)c(=O)[nH]c2cc1C
 : -15% | 18%[46.1 µM]
- COCCNC(=O)Cn1cc(S(=O)(=O)Cc2ccccc2Cl)c2ccccc21
 : 17% | -2%[46.1 µM]
- CCOc1cc(C(=O)NCCc2csc3nc(-c4ccc(C)cc4)nn23)cc(OCC)c1OCC
 : -14% | 12%[46.1 µM]
- Cc1ccc(S(=O)(=O)c2cn(C)c3cc(N4CCOCC4)c(F)cc3c2=O)c(C)c1
 : 1% | -5%[46.1 µM]
- Cn1cc(S(=O)(=O)c2ccccc2)c(=O)c2cc(F)c(N3CCCC3)cc21
 : 3% | 23%[46.1 µM]
- COc1cccc(NC(=O)N2CCC(CN3CCOCC3)CC2)c1
 : -19% | 13%[46.1 µM]
- CC(=O)c1ccc(NC(=O)COCc2cc(-c3ccco3)on2)cc1
 : -11% | -3%[46.1 µM]
- Cc1cc(NC(=O)N2CCC(CN3CCCCCC3)CC2)ccc1Br
 : 13% | 29%[46.1 µM]
- O=C(NCc1ccccc1F)c1ccc(CSc2nc3cccnc3n2Cc2ccccc2)cc1
 : -22% | ?
- COc1ccc(NS(=O)(=O)c2cc3[nH]c(=O)c(=O)[nH]c3cc2C)cc1Cl
 : 5% | 15%[46.1 µM]
- O=C(Nc1ccc(Br)cc1)N1CCC(CN2CCCC2)CC1
 : 7% | 12%[46.1 µM]
- Cc1ccc(-n2c(=O)c3c(c4cc(C)ccc4n3C)n(CC(=O)NCc3ccccc3)c2=O)cc1
 : 1% | -17%[46.1 µM]
- COc1ccc(OC)c(CNc2ncnc3c2nc2n3CCCC2)c1
 : -5% | ?
- CCOC(=O)N1CCC2(CC1)OC(=O)C(C)=C2C(=O)NCc1ccc(C)cc1
 : 1% | -5%[46.1 µM]
- Cc1ccc(NC(=O)COCc2cc(-c3cccs3)on2)cc1Cl
 : 1% | -2%[46.1 µM]
- CC(=O)Nc1ccc(NS(=O)(=O)c2ccc3c(c2)CC(C)N3C(=O)C2CCC2)cc1 (stereo not drawn)
 : -23% | ?
- CCC(NC(=O)Nc1cc(Cl)ccc1OC)c1c(-n2cccc2)sc2c1CCN(C)C2 (stereo not drawn)
 : -5% | 24%[46.1 µM]
